gsp agonist – agonists of gsp mutant (McCune-Albright syndrome); gsp mutant cells, cAMP HTRF, 30 min; control for the full effect not named in the record; Potency, µM (series often up to 76.9 µM), for inactives: at the highest dose activation (cAMP increase), usual class: activators; 340,000 tested, 0.13% active; active = well fitted activation curve with a large enough effect; inconclusive = small, poorly fitted or top-dose-only effect, or another doubt; inactive = no such curve, though single readings can be large or run the other way; cell line not stated here;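 note: phosphodiesterase inhibitor Ro 20-1724 added with compounds to block cAMP breakdown; potency is the fitted concentration of half-maximal effect; nearly all actives have a fitted effect of over 60% in size; about a fifth of the inactives were tested at one dose only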
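Cells stably selected in G418 were plated at 2000/well, grown 16-24 hr, then given compounds in DMSO with the PDE inhibitor […] (300 uM solution added) for 30 min at 37C; cAMP was read by HTRF.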
gsp antagonist – antagonizes gsp, the McCune-Albright syndrome mutation; gsp-mutant cells, cAMP HTRF, 30 min; control for the full effect not named in the record; Potency, µM (top dose mostly 76.9 µM), without a hit: at the highest dose activity change, negative = inhibition, usual class: inhibitors; 340,000 tested, 0.4% active; active = falling curve of any shape with a large fitted effect; inconclusive = falling curve, mostly with a smaller effect; inactive = flat or rising curve; cell line not stated here;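 note: intracellular cAMP measured with PDE inhibitor Ro 20-1724 present during compound exposure; potency is the fitted concentration of half-maximal effect; % is set by controls: 0 for no effect and ±100 for the full control effect; nearly all actives have a fitted effect of over 65% in size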
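HTRF cAMP measurement after 30 min RT detection following 30 min, 37C compound treatment alongside […] (added as 300 uM solution) in G418-selected cells seeded at 2000/well and grown 16–24 h.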
Menin MLL FP FL – inhibitors of human menin-MLL interaction, wild-type MLL peptide; Fluorescence polarization, fluorescein-MLL peptide displacement from menin; FP activity change, % at 61.4 µM; 290,000 tested, under 10 active; AID 1766; inconclusive = falling polarisation curve, or a change in total fluorescence; inactive = total fluorescence flat and polarisation flat or rising; no compound was filed as active; the % refers to the polarisation; negative = inhibition;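 note: % of control where 0% means no effect; inhibitors lower the polarisation; unlabelled MLL peptide was the positive control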
CtBP-E1A blk – blocks the CtBP interaction with E1A. activity change, % (test concentration not listed). 340,000 tested, 0.49% active. AlphaScreen GST-E1A/His-CtBP binding, 1536-well; stronger effect = lower value; control for the full effect not named in the record; in the data active means activity change below about -65%; inconclusive means about -30% to -65%; inactive means above about -30%; note: % is set by controls: 0 for no effect and ±100 for the full control effect; compound concentration not given in the record
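Protein mix (5X: 125 nM each GST-E1A, His-CtBP) was incubated with pinned compound 2 h at 37 deg C in dark, in 50 mM Tris pH 8.0 buffer with 300 mM NaCl. Glutathione donor and nickel acceptor beads followed; AlphaScreen signal read after 1 h.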
Sfp PPTase inh – inhibitors of Bacillus subtilis Sfp phosphopantetheinyl transferase; Q9F4F7; Biochemical Sfp PPTase activity, qHTS; Potency, µM, without a hit: max response, negative = inhibition, most hits filed as inhibitors; 310,000 tested, 3.5% active; AID 1490; active = well fitted inhibition curve with a large enough effect; inconclusive = small, poorly fitted or top-dose-only effect, or another doubt; inactive = no such curve, though single readings can be large or run the other way;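 note: the enzyme is Sfp with the accession as filed and its product quenches rhodamine fluorescence; potency is the fitted concentration of half-maximal effect; 0% = enzyme reaction without inhibitor and -100% = no enzyme wells; top concentration of the series not given in the record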
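Compounds were incubated with enzyme (final 15 nM) for 15 min at room temperature before substrate addition started the reaction. Fluorescence at 525 nm excitation, 598 nm emission was recorded immediately and after 30 minutes.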
TRPV1 potentiator – potentiators of human vanilloid receptor 1 (TRPV1); Q8NER1; TRPV1-expressing cells, Fluo-8 calcium influx, capsaicin EC20 potentiation; host cell line not named in the record; control for the full effect not named in the record; potentiation, % at 8.33 µM; 320,000 tested, 0.02% active; active means potentiation above 80%; inconclusive means 30% to 80%; inactive means below 30%; note: 0% is about no effect
Target sequence (Q8NER1 whole entry, looked up): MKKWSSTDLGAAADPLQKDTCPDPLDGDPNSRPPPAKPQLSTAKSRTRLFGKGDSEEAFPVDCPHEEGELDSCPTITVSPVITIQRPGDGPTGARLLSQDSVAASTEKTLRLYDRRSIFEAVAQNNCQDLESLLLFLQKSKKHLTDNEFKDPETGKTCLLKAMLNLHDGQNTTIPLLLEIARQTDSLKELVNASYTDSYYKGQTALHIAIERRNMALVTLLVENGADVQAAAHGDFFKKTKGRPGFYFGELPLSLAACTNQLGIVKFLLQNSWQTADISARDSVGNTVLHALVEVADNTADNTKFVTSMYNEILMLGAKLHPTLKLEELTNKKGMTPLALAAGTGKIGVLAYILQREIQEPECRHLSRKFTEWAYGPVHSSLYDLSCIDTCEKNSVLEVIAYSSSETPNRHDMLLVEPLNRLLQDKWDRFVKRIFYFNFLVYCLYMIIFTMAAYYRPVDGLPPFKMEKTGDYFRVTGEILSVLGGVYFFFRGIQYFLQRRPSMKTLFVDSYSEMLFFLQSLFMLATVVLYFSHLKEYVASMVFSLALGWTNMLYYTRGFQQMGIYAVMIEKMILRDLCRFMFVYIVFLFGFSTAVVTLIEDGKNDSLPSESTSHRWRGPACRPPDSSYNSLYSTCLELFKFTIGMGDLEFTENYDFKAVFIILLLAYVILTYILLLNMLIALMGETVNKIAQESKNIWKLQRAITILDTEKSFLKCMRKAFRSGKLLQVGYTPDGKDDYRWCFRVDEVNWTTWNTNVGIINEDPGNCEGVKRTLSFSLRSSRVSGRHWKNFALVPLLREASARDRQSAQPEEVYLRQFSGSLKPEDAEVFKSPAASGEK
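Fluo-8 calcium influx in TRPV1-expressing cells, kinetic read (ex 480/em 520 nm). Compound added and read 3 min for agonist activity, followed by capsaicin at EC20 final and 2 min further read for enhancement.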
ClpP mod – qHTS Assay for Activators of ClpP. 340,000 tested, 1.9% active. purified B. subtilis ClpP, FRET peptide cleavage, 20 min. Potency, µM (top dose mostly 57.5 µM), for the others: at the top dose activity change, negative = active; active = well fitted falling curve with a large enough effect; inconclusive = small, poorly fitted or top-dose-only effect; inactive = no such curve, though single readings can be large or run the other way; note: potency is the fitted concentration of half-maximal effect; the source files actives as falling curves though it sought activators and does not explain the sign; nearly all actives have a fitted effect of over 65% in size; many hits overshoot -100%
Target sequence (P80244 whole entry, looked up): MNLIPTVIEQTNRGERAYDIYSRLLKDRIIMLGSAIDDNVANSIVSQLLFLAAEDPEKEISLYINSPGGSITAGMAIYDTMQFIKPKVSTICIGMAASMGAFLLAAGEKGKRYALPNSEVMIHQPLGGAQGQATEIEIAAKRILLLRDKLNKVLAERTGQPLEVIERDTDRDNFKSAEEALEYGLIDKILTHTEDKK
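Purified B. subtilis ClpP, 10 microg/mL final in Tris/HCl pH8 with KCl, BSA, glycerol and Tween-20, cleaved an Abz/nitrotyrosine-quenched decapeptide. Fluorescence (ex 320, em 430) was read at 0 and 20 min at room temperature. Delta was normalized to 5.8 microM ADEP and DMSO/no-enzyme controls.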
An asterisk follows results filed as active; ? = inconclusive; · = no result given; & = joins results of further samples; [ ] = remark or other dose.

structure	CtBP-E1A blk	gsp agonist	TRPV1 potentiator	ClpP mod	Sfp PPTase inh	Menin MLL FP FL	gsp antagonist
Cn1c(=O)n(C)c2cc([N+](=O)[O-])c(N3CCN(C(=O)c4ccc(F)cc4)CC3)cc21	·	20%	-13	1.0%	-8%	2.3	-15%
COC(=O)C(Cc1ccccc1)NC(=O)C12CC3CC(CC(C3)C1)C2 (stereo not drawn)	14	8%	20	-2.2%	0%	3.0	-10%
Cc1ccc(-n2c(=O)c3c4c(sc3n3c(C)nnc23)COC(C(C)C)C4)cc1 (stereo not drawn)	4	20%	·	-1.3%	·	·	-5%
CN(C(=O)c1cccc(NC(=O)Cc2ccc([N+](=O)[O-])cc2)c1)C1CCCC1	-2	4%	·	0.1%	·	·	-19%
CCN(C(=O)CN1CCN(c2ccc(O)cc2)CC1)c1c(N)n(Cc2ccccc2)c(=O)[nH]c1=O	-2	1%	?	-9.0%	14µM*	4.2	-7%
COc1cc([N+](=O)[O-])ccc1NC(=O)COC(=O)C=C(C)C	-9	-1%	-4	-0.6%	14%	0.9	-5%
COC(=O)c1ccc(OCC(O)CNCC(c2ccc(OC)cc2)N(C)C)c(OC)c1 (stereo not drawn)	0	2%[15.4 µM]	9	·	-26%	-2.7	5%
CN(C)c1nc(Cl)nc2c1nc(Cl)n2C1CCCCO1 (stereo not drawn)	-1	-30%[inhibitor]	·	-1.4%	·	·	-13%
COc1ccc(N(CC(=O)Nc2ccc3c(c2)OCCO3)S(=O)(=O)c2c(C)noc2C)cc1	0	-52%	7	-16%	8%	4.4	?
CCCc1cc(=O)n2[nH]c(Cc3ccccc3)nc2n1	-1	30%	18	-1.2%	3%	1.9	3%
COCc1cc(C)nc(OC)c1C(N)=O	7	14%	3	·	26%	-0.4	12%
O=C(c1cn(-c2ccccc2)nc1-c1cc2ccccc2oc1=O)N1CCOCC1	3	21%	3	·	-5%	-2.8	-2%
CC(c1ccc(F)cc1)n1cc(C(=O)NCc2ccccn2)nn1 (stereo not drawn)	·	-11%	-36	-0.5%	-2%	-3.4	19%
CCOc1ccccc1NC(=O)c1ccc(F)c(S(=O)(=O)N2CCC3(CC2)OCCO3)c1	-3	-10%	-10	-1.7%	4%	0.9	-13%
COc1ccc(O/C(=N\S(=O)(=O)c2ccccc2)c2ccccc2)cc1	-1	-4%	0	-1.2%	20%	0.6	2%
O=C(CSc1nccn1-c1ncc(C(F)(F)F)cc1Cl)c1ccc(Cl)cc1	-4	-7%	-1	1.4%	-13%	4.4	-1%
Cc1cc2cc3c(cc2nc1SCC(=O)N1c2ccccc2CC1C)OCO3 (stereo not drawn)	6	-6%	14	?	4%	2.1	-4%
COc1ccc(OC)c(NC(=O)CN(c2ccc(OC)c(Cl)c2)S(C)(=O)=O)c1	-3	5%	?	0.9%	-8%	3.3	-12%
O=C(NCCc1csc(-c2cccnc2)n1)c1c(F)cccc1F	3	-11%[15.4 µM]	19	·	10%	-0.8	-14%
Cc1noc(NS(=O)(=O)c2ccc(NC(=O)C34CC5CC(C3)CC(n3cnc(Cl)n3)(C5)C4)cc2)c1C	-9	-82%[inhibitor]	-15	-0.6%	7%	·	-19%
CCCCCCCC(=O)NNC(=O)Cc1ccccc1	4	1%	3	1.0%	1%	3.6	10%
COc1ccccc1N1CCN(CC(=O)c2c(C)n(C)c3ccccc23)CC1	-14	8%	16	-3.3%	-11%	4.6	3%
O=C(NNC(=O)c1cc(-c2ccncc2)nc2ccccc12)c1ccccc1O	?	-2%[15.4 µM]	-5	·	·	·	-16%
CCN(C(=O)C(C)Sc1nnc(-c2ccncc2)n1C)C1CCCCC1 (stereo not drawn)	28	-17%	·	-0.6%	·	·	5%
Cc1cc(Cl)ccc1NNC(=O)c1c(C)noc1C	3	-2%[15.4 µM]	?	0.6%	0%	3.8	14%
CCCCOc1ccccc1/C=N/NC(=O)CC#N	·	3%	-3	0.6%	1%	-2.1	-5%
COC(=O)Cc1cc(=O)n(-c2nc3ccccc3[nH]2)[nH]1	-86*	-2%	12	-0.8%	22%	6.6	10%
COc1ccc(COC(=O)CCN=C2NS(=O)(=O)c3ccccc32)cc1F	7	-18%	5	-0.4%	·	·	-6%
COC(=O)COc1ccc(-c2nn(C)c(=O)c3ccccc23)cc1	0	-12%	-2	-1.5%	16%	6.1	-23%
CC(=O)C1C(c2ccccc2OC(F)F)NC(=O)NC1(O)C(F)(F)F (stereo not drawn)	-17	5%[15.4 µM]	12	0.5%	12%	-0.3	10%
CC(C)(C)C1CCC(OCC(O)CN2CCN(Cc3ccccc3)CC2)CC1 (stereo not drawn)	-21	-4%	-4	1.6%	14%	6.8	17%
O=C(Nc1nnc(-c2ccncc2)o1)C1CCCCC1	-14	-40%[inhibitor]	?	-25%	-2%	1.9	12%
CCN(CC(=O)NCc1cccs1)C(=O)Cc1ccc(C)c(C)c1	-1	6%	·	-2.9%	·	·	7%
Cc1oc(-c2ccc(Cl)cc2)nc1CN1CCC(C(=O)NCCCN2CCOCC2)CC1	-3	-35%	8	0.0%	-17%	-2.1	12%
Cc1ccc(S(=O)(=O)N2CCC(=O)N(C(COCc3ccccc3)C(C)C)CC2)cc1 (stereo not drawn)	2	7%	-11	-1.4%	17%	-1.4	-11%
CCN(CC)CCn1c2c(c(SCC(=O)Nc3ccc(C(C)C)cc3)nc1=O)CCC2	6	7%[15.4 µM]	-8	·	·	·	7%
Cc1cc(C)cc(NC(=O)CCC(=O)N2CCSc3ccccc32)c1	-1	20%	?	1.6%&1.8%	6%	-0.1	-1%
Cc1ccc2nc(-c3ccc(N4C(=O)CC(N5CCN(CCO)CC5)C4=O)cc3)sc2c1 (stereo not drawn)	-3	-12%	16	55%	-22%	13	32%[activator]
O=C(CCS(=O)(=O)c1ccccc1)N1CCN(c2ccccc2F)CC1	6	3%[15.4 µM]	-9	1.5%	8%	·	8%
O=C(CNC(=O)c1ccco1)NNC(=O)c1n[nH]c(=O)c2ccccc12	5	9%	·	·	·	·	5%
CCOc1ccccc1C(=O)NCC(=O)NNC(=O)c1csc(N2CCOCC2)n1	-3	-72%[inhibitor]	·	-24%	·	·	·
CO/N=C(/CS(=O)c1ccc(Br)cc1)c1ccc(OC)cc1 (stereo not drawn)	-5	8%	-5	-0.4%	?	-1.5	-8%
CCCCn1c2c(c(=N)c3ccccc31)CCC2	0	1%[15.4 µM]	-19	-4.1%	4%	0.0	-10%
Oc1c(N=Nc2ccccc2)sc2ccccc12	-24	-6%	-11	-0.6%	1%	?	-4%
Cc1ccc(OCC(=O)NS(=O)(=O)c2ccc(Cl)cc2)cc1	10	-5%	-3	2.1%	22%	·	3%
Cc1c(-c2nnc(-c3ccc(C(F)(F)F)cc3)o2)cnn1-c1ccccc1	4	2%	8	-26%	10%	0.8	2%
COc1ccc(CNC(=O)c2c(-c3cc(Cl)c(OC)c(Cl)c3)noc2C)cc1	5	-3%	7	1.3%	11%	3.6	?
O=C(N/N=C/c1ccc2ccccc2c1)c1ccc(COc2ccc3c(c2)CCC3)o1	3	6%	-7	480%	-18%	6.7	16%
N#CCCN(C(=O)c1ccco1)c1ccccc1	9	-26%	4	1.0%	3%	4.8	-1%
CSCCC(NC(=O)c1cccc([N+](=O)[O-])c1)C(=O)OCC(=O)N1CCCC1=O (stereo not drawn)	-5	-1%	3	-2.2%	·	·	-10%

Some of these compounds in order of the gsp agonist value, smallest number first.
| mol | gsp agonist |
| --- | --- |
| N#CCCN(C(=O)c1ccco1)c1ccccc1 | -26% |
| COc1ccc(CNC(=O)c2c(-c3cc(Cl)c(OC)c(Cl)c3)noc2C)cc1 | -3% |
| Cc1c(-c2nnc(-c3ccc(C(F)(F)F)cc3)o2)cnn1-c1ccccc1 | 2% |

Following part.
structure	CtBP-E1A blk	gsp agonist	TRPV1 potentiator	ClpP mod	Sfp PPTase inh	Menin MLL FP FL	gsp antagonist
COc1ccc(C2CC(c3ccc(C)cc3)Nc3nc(N)nn32)cc1 (stereo not drawn)	4	-18%	10	-1.9%	-6%	2.5	1%
Cc1cn(-c2ccc(Br)cc2)[nH]c1=O	-9	-10%	6	-4.8%	22%	1.3	-1%
CCCCCCCCOC(=O)CCn1[nH]c(=O)c2ccccc2c1=O	4	-5%	7	-1.8%	-7%	0.3	-5%
COc1ccc(N(CC(=O)N/N=C(\C)c2cccs2)S(=O)(=O)c2ccccc2)cc1Cl	·	·	-12	·	26%	-0.5	·
Cc1cc(C(F)(F)F)nn1-c1nc(-c2ccco2)cc(C(F)(F)F)n1	35	6%	-15	35µM*	12%	3.0	0%
CSc1ccccc1NC(=O)COC(=O)c1ccccc1O	-4	17%[15.4 µM]	-13	·	19%	-0.7	-30%
CCOc1cc(C2C(C(=O)N3CCCCC3)=C(C)NC3=C2C(=O)CCC3)cc(Br)c1O (stereo not drawn)	-4	28%	6	-4.0%	-11%	2.4	-2%
CCOc1ccccc1NC(=O)CN(C)S(=O)(=O)c1cccc2nsnc12	-12	-1%	-28	-0.7%	1%	3.9	-8%
O=C1Nc2ccc(S(=O)(=O)NCC3CCCO3)c3cccc1c23 (stereo not drawn)	·	?	11	?	1%	0.5	-4%
CC(C)C(=O)Nc1ccc(S(=O)(=O)Nc2ccccn2)cc1	5	6%	-14	·	5%	-12	1%
NC1(C#Cc2ccc3oc(=O)c(-n4cc(C5(O)CCCCC5)nn4)cc3c2)CCCCC1	3	-11%	·	?	·	·	1%
CC(C)Cn1c(N)c(C(=O)COC(=O)c2ccc(O)cc2O)c(=O)n(C)c1=O	3	-40%	9	-3.5%	·	·	-32%
Cc1ccsc1C(C(=O)NC1CCCCC1)N(C(=O)Cc1cccs1)C1CC1 (stereo not drawn)	9	-1%	-7	2.0%	9%	0.2	0%
O=C(C1CCN(S(=O)(=O)c2ccccc2)CC1)N1CCN(Cc2ccccc2)CC1	4	2%	-5	0.9%	11%	·	-1%
Cc1cc(C(=O)c2ccccc2)cc(C)c1O	-23	-6%[15.4 µM]	·	-1.1%	·	·	1%
